ClpP mod – qHTS Assay for Activators of ClpP; 1.9% of 340,000 active; Potency, µM (series often up to 57.5 µM), for inactives: at the top dose activity change, negative = active; purified B. subtilis ClpP, FRET peptide cleavage, 20 min; ATP-dependent Clp protease proteolytic subunit (Bacillus subtilis (strain 168)), P80244; AID 651965, 2013; active = well fitted falling curve with a large enough effect; inconclusive = small, poorly fitted or top-dose-only effect; inactive = no such curve, though single readings can be large or run the other way; also: potency is read from the fitted curve at half-maximal effect; the source files actives as falling curves though it sought activators and does not explain the sign; nearly all actives have a fitted effect of over 65% in size; many hits overshoot -100%
Target sequence (P80244 whole entry, looked up): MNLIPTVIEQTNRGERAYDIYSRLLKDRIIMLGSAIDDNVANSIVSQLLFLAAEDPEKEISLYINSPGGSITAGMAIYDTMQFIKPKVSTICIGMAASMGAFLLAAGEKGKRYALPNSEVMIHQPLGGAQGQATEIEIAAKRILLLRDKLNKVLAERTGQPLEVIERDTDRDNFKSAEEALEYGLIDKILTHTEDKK
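FRET quenching reversal measured ClpP activation: 10 microg/mL B. subtilis ClpP at pH 8 with the FRET-FV decapeptide, read at 430 nm after 320 nm excitation. The 20-min minus 0-min signal was scaled between DMSO/no-enzyme wells and ADEP (5.8 microM final).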
Sfp inh – qHTS Assay for Inhibitors of Bacillus subtilis Sfp phosphopantetheinyl transferase (PPTase); 4'-phosphopantetheinyl transferase ffp (Bacillus subtilis), Q9F4F7; AID 1490, 2009; 3.5% of 310,000 active; Potency, µM, for inactives: max response, negative = inhibition, hits mostly inhibitors; Biochemical Sfp PPTase activity, qHTS; active = well fitted inhibition curve with a large enough effect; inconclusive = small, poorly fitted or top-dose-only effect, or another doubt; inactive = no such curve, though single readings can be large or run the other way;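 also: the enzyme is Sfp with the accession as filed and its product quenches rhodamine fluorescence; potency is read from the fitted curve at half-maximal effect; 0% = enzyme reaction without inhibitor and -100% = no enzyme wells; top concentration of the series not given in the record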
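Buffer: 50 mM Hepes-Na pH 7.6, 10 mM MgCl2, 0.01% Nonidet P-40, 0.01% BSA. Enzyme 15 nM, pre-exposed to compound 15 min; substrates then added and fluorescence change tracked over 30 min.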
gsp ag – qHTS for Agonist of gsp, the Etiologic Mutation Responsible for Fibrous Dysplasia/McCune-Albright Syndrome: qHTS | AID 624287, 2012 | 0.13% of 340,000 active | Potency, µM (top dose mostly 76.9 µM), for inactives: at the highest dose activation (cAMP increase), actives largely listed as activators | gsp mutant cells, cAMP HTRF, 30 min; control for the full effect not named in the record; active = well fitted activation curve with a large enough effect; inconclusive = small, poorly fitted or top-dose-only effect, or another doubt; inactive = no such curve, though single readings can be large or run the other way; cell line not stated here;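 also: phosphodiesterase inhibitor Ro 20-1724 added with compounds to block cAMP breakdown; potency is read from the fitted curve at half-maximal effect; nearly all actives have a fitted effect of over 60% in size; about a fifth of the inactives were tested at one dose only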
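Cells stably selected in G418 were plated at 2000/well, grown 16-24 hr, then given compounds in DMSO with the PDE inhibitor […] (300 uM solution added) for 30 min at 37C; cAMP was read by HTRF.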
TRPML1 inh – qHTS for Inhibitors of the Human Mucolipin Transient Receptor Potential 1 (TRPML1); TRPML1-inducible cells, Ca2+ dye fluorescence, FDSS; active compounds read low; inhibition of EC80 agonist-evoked calcium signal; Mucolipin-1 (Homo sapiens), Q9GZU1; activity change, negative = inhibition, % (test concentration not listed); 0.02% of 390,000 active; in the data active means activity change below about -50%; inconclusive means about -30% to -50%; inactive means above about -30%;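 also: stimulus is agonist 54-4 at its EC80 concentration; % is scaled to controls: 0 for no effect and ±100 for the full control effect; compound concentration not given in the record; the text of the record puts the active cut at -80%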
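Calcium fluorescence in TRPML1-DL cells induced overnight with Tet: a 110 s read after compound pin addition, then a 110 s antagonist read after challenge with 54-4 at 4 uM final (EC80).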
gsp antagonist – qHTS for Antagonists of gsp, the Etiologic Mutation Responsible for Fibrous Dysplasia/McCune-Albright Syndrome: qHTS; Potency, µM (top dose mostly 76.9 µM), without a hit: top-dose activity change, negative = inhibition, most hits filed as inhibitors; AID 624288, 2012; gsp-mutant cells, cAMP HTRF, 30 min; control for the full effect not named in the record; 0.4% of 340,000 active; active = falling curve of any shape with a large fitted effect; inconclusive = falling curve, mostly with a smaller effect; inactive = flat or rising curve; cell line not stated here;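 also: intracellular cAMP measured with PDE inhibitor Ro 20-1724 present during compound exposure; potency is read from the fitted curve at half-maximal effect; % is scaled to controls: 0 for no effect and ±100 for the full control effect; nearly all actives have a fitted effect of over 65% in size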
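Cells in G418 medium, seeded 16-24 h, 37C; buffer exchange to DPBS + 1 mM CaCl2, 0.5 mM MgCl2, 0.05% BSA; cpds in DMSO + […] (300 uM stock), 30 min 37C; HTRF cAMP detection.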
Menin MLL FP FL – qHTS Assay for Inhibitors Targeting the Menin-MLL Interaction in MLL Related Leukemias: Competition With Fluorescein Labeled MLL-derived Peptide | Fluorescence polarization, fluorescein-MLL peptide displacement from menin | FP activity change, % at 61.4 µM | 290,000 tested, under 10 active | AID 1766, 2009; inconclusive = falling polarisation curve, or a change in total fluorescence; inactive = total fluorescence flat and polarisation flat or rising; no compound was filed as active; the % refers to the polarisation; negative = inhibition;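 also: % of control where 0% means no effect; inhibitors lower the polarisation; unlabelled MLL peptide was the positive control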
TRPV1 PAM – HTS Assay for Compounds that Act as Potentiators of the Vanilloid Receptor 1; 0.02% of 320,000 active; potentiation, % at 8.33 µM; Transient receptor potential cation channel subfamily V member 1 (Homo sapiens), Q8NER1; TRPV1-expressing cells, Fluo-8 calcium influx, capsaicin EC20 potentiation; host cell line not named in the record; control for the full effect not named in the record; active means potentiation above 80%; inconclusive means 30% to 80%; inactive means below 30%; also: 0% is about no effect
Target sequence (Q8NER1 whole entry, looked up): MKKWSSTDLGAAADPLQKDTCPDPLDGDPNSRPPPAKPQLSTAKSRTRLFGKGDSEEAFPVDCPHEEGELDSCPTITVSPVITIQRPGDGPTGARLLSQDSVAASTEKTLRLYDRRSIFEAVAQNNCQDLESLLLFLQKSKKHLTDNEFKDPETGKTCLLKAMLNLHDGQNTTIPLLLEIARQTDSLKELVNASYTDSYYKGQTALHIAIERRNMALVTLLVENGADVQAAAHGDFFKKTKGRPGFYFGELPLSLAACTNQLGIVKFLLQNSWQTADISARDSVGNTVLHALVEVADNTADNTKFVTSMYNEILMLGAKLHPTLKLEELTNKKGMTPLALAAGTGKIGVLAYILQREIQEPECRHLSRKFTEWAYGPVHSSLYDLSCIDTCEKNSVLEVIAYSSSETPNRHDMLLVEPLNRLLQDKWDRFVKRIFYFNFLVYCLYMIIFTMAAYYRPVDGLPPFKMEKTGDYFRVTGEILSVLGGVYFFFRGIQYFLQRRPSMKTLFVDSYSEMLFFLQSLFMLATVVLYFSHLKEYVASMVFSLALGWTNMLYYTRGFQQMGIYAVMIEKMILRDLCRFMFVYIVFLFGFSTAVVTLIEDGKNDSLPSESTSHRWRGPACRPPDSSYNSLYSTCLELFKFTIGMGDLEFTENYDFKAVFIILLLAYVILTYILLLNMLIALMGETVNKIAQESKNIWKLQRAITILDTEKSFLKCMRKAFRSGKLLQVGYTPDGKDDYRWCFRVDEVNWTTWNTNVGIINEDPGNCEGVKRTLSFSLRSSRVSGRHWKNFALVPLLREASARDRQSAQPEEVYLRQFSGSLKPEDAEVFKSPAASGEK
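Cells expressing TRPV1 were dye-loaded with Fluo-8 and read kinetically: 10 s baseline, 3 min after compound (agonist portion), then 2 min after EC20 capsaicin (allosteric enhancer portion). Calcium-bound dye fluorescence at 480/520 nm.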
An asterisk follows results filed as active; ? = inconclusive; nt = not tested or not shown; & = joins results of further samples; [ ] = dose if it differs, or a comment. This is a random part of the collection. Share with any hit: about 4.9%.

SMILES | ClpP mod | Sfp inh | gsp ag | TRPML1 inh | gsp antagonist | Menin MLL FP FL | TRPV1 PAM
CCCc1cc(=O)oc2cc(OC(C)C(=O)NCC3CCC(C(=O)O)CC3)c(Cl)cc12 (stereo not drawn) | 5.2% | 14% | nt | nt | -9% | -0.8 | 10
O=C1NN=C(c2ccc(Br)cc2)CC1c1ccc(Cl)cc1 (stereo not drawn) | nt | 4% | -20% | 7 | -3% | -0.9 | -28
CCOC(=O)COc1ccc(S(=O)(=O)NCCC2=CCCCC2)cc1 | 0.5% | 3% | -4% | 1 | -9% | -0.6 | 0
N#Cc1ccc(CNc2cnccn2)cc1 | ? | 17% | 17% | 17 | 7% | 0.9 | -4
CCn1ncc(/C=N/NC(=O)c2cc(Cl)ccc2OC)c1C | -1.0% | 0% | -18% | -6 | 7% | 4.5 | 9
COc1ccc(C2C(C#N)=C(N)OC3=C2C(=O)CC(C)(C)C3)cc1Cn1cc([N+](=O)[O-])cn1 (stereo not drawn) | -1.3% | 6% | ? | 12 | 21% | 5.6 | 2
O=S(=O)(c1ccccc1)n1ccc2ccccc21 | -8.3% | -14% | 22% | 68 | 3% | -1.4 | 4
Cc1ccc(-n2c(C)cc(C(=O)COC(=O)c3ccc[nH]c3=O)c2C)cc1C | ? | 1% | 15% | 13 | -5% | 6.4 | -6
COCCNC(=O)CS(=O)Cc1nc(-c2ccc(Cl)cc2)oc1C (stereo not drawn) | -18% | -14% | -48%[inhibitor] | -5 | 9% | 3.8 | nt
Cc1cccc2sc(NNC(=O)c3ccc(S(=O)(=O)N4CCc5ccccc5C4)cc3)nc12 | -1.4% | ? | -33%[inhibitor] | -20 | -22% | 4.9 | 7
CCc1nn2c(N)c(/C=C3\C=Nc4ccccc43)c(=O)nc2s1 | 1.2% | 1%&2% | -10%[15.4 µM] | 23&-2 | ? | 0.3&4.2 | 24&15
O=c1[nH]c2cccnc2n1-c1cccc([N+](=O)[O-])c1 | nt | -10% | 0%[15.4 µM] | -2 | -3% | 0.0 | 15
COc1ccc(CNc2nc(C)c([N+](=O)[O-])c(C)c2C#N)cc1 | 0.7% | 12% | 6% | 56 | -8% | 3.5 | 1
Cc1oc2cc3oc(=O)c(CCC(=O)NCCCN4CCCC4=O)c(C)c3cc2c1C | -12% | 13% | nt | nt | 0% | -1.2 | -5
NNC(=O)Cn1c(COc2ccc(Cl)cc2)nc2ccccc21 | 0.2% | 6% | 10% | 44 | 7% | 2.6 | 7
O=C(NC1CCCC1)c1ccc(Cn2c(=O)[nH]c3ccsc3c2=O)cc1 | 0.8% | 0% | ? | nt | -17% | 4.8 | 14
COc1ccc(C(=Cc2cc(OC)c(OC)cc2[N+](=O)[O-])C(=O)O)cc1 | -0.5% | nt | 9%[15.4 µM] | -5 | ? | nt | nt
CCOc1ccccc1C(C(=O)NC1CCCC1)N(C(=O)c1csnn1)C1CC1 (stereo not drawn) | nt | 2% | -1% | -2 | 9% | -2.9 | 0
Cc1nnn(C23CC4CC(CC(C4)C2)C3)n1 | -2.1% | 7% | -10% | 0 | 9% | 0.3 | 8
Cc1cc(C(=O)N2CCCC(C(=O)c3cccc4ccccc34)C2)nc(C)n1 (stereo not drawn) | -3.4% | 1% | 2% | -17 | 0% | -9.1 | -11
O=C(CN1C(=O)c2ccccc2S1(=O)=O)c1ccc2c(c1)OCCO2 | -2.5% | 5% | 4% | 4 | -9% | 1.8 | 1
O=c1[nH]cnc2sc(-c3ccccc3)cc12 | 32µM* | 9% | -33%[inhibitor] | -12 | 4% | -0.8 | 8
CCc1ccc(C(=O)COC(=O)CNC(=O)COc2ccccc2)cc1 | 0.9% | 4% | 0% | -4 | -6% | 5.0 | 18
O=C(O)c1cnn2c1NC(c1cccs1)CC2C(F)(F)F (stereo not drawn) | 2.3% | 14% | -73%[inhibitor] | 2 | -4% | 1.2 | -5
Cn1ncc(C#N)c1NC(=O)c1cc(-c2ccccc2Cl)on1 | -0.1% | -4% | 1% | -4 | -8% | 1.4 | -1
COC(=O)c1ccc(C)c(NC(=O)CCc2cc(OC)c(OC)c(OC)c2)c1 | 0.6% | 3% | 6%[15.4 µM] | ? | -14% | -3.2 | 2
O=C(NC(=S)Nc1ccc2[nH]c(=O)[nH]c2c1)c1ccccc1F | 2.7% | 4% | ? | 10 | -4% | nt | -10
CC(C)N1C(=O)CCC1C(=O)NCc1cccs1 (stereo not drawn) | 2.1% | 22% | 19%[15.4 µM] | 8 | 2% | -0.2 | -5
CCN(CC)c1ccc(C(=O)NNC(=O)CNC(=O)c2ccco2)cc1 | -3.1% | nt | -4% | -4 | 6% | nt | 7
COc1ccc(CNC(=O)C(C)c2ccc([N+](=O)[O-])cc2)cc1 (stereo not drawn) | nt | 14% | ? | -5 | -3% | 0.0 | -21
CC(Oc1ccccc1Br)C(=O)N1CCc2ccccc21 (stereo not drawn) | -2.6% | -14% | -1% | 14 | -7% | 4.0 | 4
O=Cc1c(NCc2ccccc2)c2ccccc2[nH]c1=O | 1.4% | 10% | -13% | -16 | 2% | -5.3 | -9
CC(C)CCN(C(=O)c1csnn1)C(C(=O)NC1CCCC1)c1ccccc1 (stereo not drawn) | nt | 14% | 0% | 1 | 0% | 1.3 | -17
Cc1nc2ccccc2nc(C)c1=NOCc1ccc(Cl)cc1Cl | -2.0% | -8% | -15% | -19 | -2% | -0.7 | 8
COc1cccc(C(=O)CN(C(=O)c2ccc(Cl)cc2Cl)N2C(=O)c3ccccc3C2=O)c1 | 3.7% | 1% | 1% | -3 | -12% | 0.9 | 4
CC(=O)c1ccccc1NC(=O)COC(=O)/C=C/c1cccs1 | nt | nt | 31%[15.4 µM] | 30 | -6% | nt | 17
CCCNC(=O)COC(=O)/C=C/c1cccc(F)c1 | nt | 24% | -6% | 17 | 3% | 0.3 | -12
COc1ccc2nc(NC(=O)CSc3ccccc3)sc2c1 | -2.4% | ? | 12% | -10 | -3% | ? | ?
COc1ccc(S(=O)(=O)N(C)C[C@@H]2Oc3ccc(NS(C)(=O)=O)cc3C(=O)N([C@@H](C)CO)C[C@H]2C)cc1 | -5.5% | nt | 19% | -26 | 6% | nt | nt
Cc1c(C(=O)NNc2cc(=O)n(C)c(=O)n2C)cccc1[N+](=O)[O-] | -0.9% | 15% | ? | 5 | 12% | -0.8 | 3
Cc1nc2ccccc2n1-c1ccccc1 | 0.5% | 1% | 8% | 7 | -7% | 2.8 | -9
Cc1nonc1C1CCCN1Cc1nc(-c2ccccc2Cl)oc1C (stereo not drawn) | -1.6% | 0% | 6% | 54 | -10% | 0.6 | -9
O=C(Nc1nnc(SCC(=O)N2CCCCC2)s1)C1CCCCC1 | -3.3% | -13% | -5% | 2 | 17% | -0.1 | 26
CN(CCOc1ccc(Cl)c(Cl)c1)Cc1ccccc1 | -0.2% | 1% | -4% | 4 | 4% | -3.1 | 0
O=C(CN1C(=O)CCC1=O)Nc1ccc(S(=O)(=O)N2CCOCC2)cc1 | 1.3% | -5% | -8% | -1 | 3% | 14 | 1
CC1=C(C(=O)N(C)C)CC(CC(=O)NC(c2ccccc2)c2ccccc2)C(=O)N1Cc1ccc(C(C)(C)C)cc1 (stereo not drawn) | -0.5% | nt | -43% | -5 | nt | nt | nt
COc1ccc(/C=C2\OC(=O)c3c(OC)cccc32)cc1OC | ? | 14% | ? | 9 | 10% | -0.4 | 18
Cc1ccc(-c2noc(C3CCCN(S(=O)(=O)c4ccc(S(=O)(=O)N(C)C)cc4)C3)n2)o1 (stereo not drawn) | -0.6% | 8% | 4% | -14 | 6% | 3.0 | 12
CCOc1ccc(-c2nc(-c3cccnc3)no2)cc1OCC | -0.1% | 1% | -2% | 11 | -3% | 3.4 | -14
CC(C(=O)O)N1C(=O)CSc2ncccc21 (stereo not drawn) | -1.5% | 25% | 0% | 18 | -4% | -1.1 | -5
OC(Cn1cncn1)c1ccc(Cl)cc1Cl (stereo not drawn) | -11% | 5% | -8% | -6 | -4% | 3.7 | -9
Clc1ccc2c(c1)C(c1cccs1)=NNC(c1cccnc1)=N2 | 1.0% | 2% | 1% | -9 | -14% | 5.7 | -4
CC(C)(C)[C@H]1COC(=O)CCCC/C=C\C[C@H](CC(=O)NCCO)C(=O)N1 | -4.4% | nt | 0% | -16 | 5% | nt | nt
COc1cc(NC(=O)C2CC(=O)NC3=C2C(=O)CC(C)(C)C3)c(OC)cc1Cl (stereo not drawn) | -2.7% | -3% | -9% | -2 | 5% | 1.2 | -5
COc1cc(OC)cc(C(=O)NCC2CCCN(C(=O)c3csc(C)n3)C2)c1 (stereo not drawn) | -6.4% | 2% | 1% | -1 | 8% | 2.1 | 20
CCNC(=S)NN=C1c2ccccc2-c2ccccc21 | nt | 3% | -14%[15.4 µM] | 26 | -31% | 7.9 | -10
O=C(/C=C/c1ccccc1[N+](=O)[O-])NCc1ccc(Cl)cc1 | nt | 8% | -12%[15.4 µM] | 15 | 4% | -4.7 | 10
O=C(Nc1ccc(NC(=O)c2ccc([N+](=O)[O-])o2)cc1Cl)c1ccco1 | -4.1% | 0% | 2%[15.4 µM] | -4 | 0% | 0.9 | -20
